Compound activity: PubChem, National Center for Advancing Translational Sciences (NCATS)
TRPML1 ag – human mucolipin-1 channel agonism | Q9GZU1 | TRPML1-expressing cells, Ca2+ dye fluorescence, FDSS; host cell line not named in the record; reference of the full effect not given here | activation, % (test concentration not listed) | hit rate 0.12% among 410,000 | AID 624414; in the data active = activation above about 50%; inconclusive = about 30% to 50%; inactive = below about 30%; further: 0% is about no effect; the text of the record puts the active cut at 80%
Target sequence (Q9GZU1 whole entry, looked up): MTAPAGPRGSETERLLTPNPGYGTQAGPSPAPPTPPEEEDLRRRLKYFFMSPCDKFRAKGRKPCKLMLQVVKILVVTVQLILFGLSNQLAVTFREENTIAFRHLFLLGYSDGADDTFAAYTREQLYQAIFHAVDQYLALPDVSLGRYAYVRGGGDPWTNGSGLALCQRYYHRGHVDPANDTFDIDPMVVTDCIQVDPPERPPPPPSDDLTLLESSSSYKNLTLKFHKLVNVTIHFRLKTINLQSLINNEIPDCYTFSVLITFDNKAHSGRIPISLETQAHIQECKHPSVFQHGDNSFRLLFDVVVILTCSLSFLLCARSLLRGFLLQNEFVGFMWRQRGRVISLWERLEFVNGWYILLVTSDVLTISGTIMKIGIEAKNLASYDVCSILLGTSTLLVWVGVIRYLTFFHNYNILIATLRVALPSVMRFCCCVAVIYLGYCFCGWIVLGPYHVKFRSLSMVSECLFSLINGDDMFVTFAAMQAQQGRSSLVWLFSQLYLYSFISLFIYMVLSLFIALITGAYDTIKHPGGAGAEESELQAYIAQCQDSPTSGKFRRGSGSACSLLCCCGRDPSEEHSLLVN
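Tet-induced TRPML1-DL cells, 1,500 per well, cultured overnight, were loaded with a no-wash Ca2+ dye for 45–90 min. Calcium fluorescence was recorded on the FDSS for 110 s after compound addition, before the EC80 agonist (4 uM 54-4) was added.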
gsp antagonist – antagonists of gsp mutant (McCune-Albright syndrome) | gsp-mutant cells, cAMP HTRF, 30 min; control for the full effect not named in the record | Potency, µM (top dose mostly 76.9 µM), for inactives: at the highest dose activity change, negative = inhibition, hits mostly inhibitors | hit rate 0.4% among 340,000 | AID 624288; active = falling curve of any shape with a large fitted effect; inconclusive = falling curve, mostly with a smaller effect; inactive = flat or rising curve; cell line not stated here;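 further: intracellular cAMP measured with PDE inhibitor Ro 20-1724 present during compound exposure; potency means the concentration at half of the fitted maximal effect; on the % scale 0 is the no-effect control and ±100 the full control effect; nearly all actives have a fitted effect of over 65% in size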
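Measurement of cellular cAMP by homogeneous time-resolved fluorescence following a 30 min compound exposure at 37C. The PDE inhibitor […] was present throughout; the assay buffer was DPBS with 0.05% BSA and 0.005% Tween 20.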
ClpP mod – qHTS Assay for Activators of ClpP; purified B. subtilis ClpP, FRET peptide cleavage, 20 min; Potency, µM (top dose mostly 57.5 µM), without a hit: at the top dose activity change, negative = active; hit rate 1.9% among 340,000; active = well fitted falling curve with a large enough effect; inconclusive = small, poorly fitted or top-dose-only effect; inactive = no such curve, though single readings can be large or run the other way; further: potency means the concentration at half of the fitted maximal effect; the source files actives as falling curves though it sought activators and does not explain the sign; nearly all actives have a fitted effect of over 65% in size; many hits overshoot -100%
Target sequence (P80244 whole entry, looked up): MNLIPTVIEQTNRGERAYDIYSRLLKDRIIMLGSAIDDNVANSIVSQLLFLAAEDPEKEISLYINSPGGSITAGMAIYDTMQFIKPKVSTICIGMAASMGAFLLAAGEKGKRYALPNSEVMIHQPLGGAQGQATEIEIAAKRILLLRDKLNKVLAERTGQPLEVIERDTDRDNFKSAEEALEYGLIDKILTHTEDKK
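ClpP 10 microg/mL final, pH 8 Tris/KCl buffer with BSA, glycerol, Tween-20; compound pinned in; FRET-FV substrate; RT 20 min; Ex320/Em430; ΔFRET vs ADEP 5.8 microM, DMSO, no enzyme.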
gsp ag – activates gsp, the McCune-Albright syndrome mutation; gsp mutant cells, cAMP HTRF, 30 min; control for the full effect not named in the record; Potency, µM (titrated, usually from 76.9 µM), without a hit: top-dose activation (cAMP increase), usual class: activators; hit rate 0.13% among 340,000; AID 624287; active = well fitted activation curve with a large enough effect; inconclusive = small, poorly fitted or top-dose-only effect, or another doubt; inactive = no such curve, though single readings can be large or run the other way; cell line not stated here;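 further: phosphodiesterase inhibitor Ro 20-1724 added with compounds to block cAMP breakdown; potency means the concentration at half of the fitted maximal effect; nearly all actives have a fitted effect of over 60% in size; about a fifth of the inactives were tested at one dose only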
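Cells stably selected in G418 were plated at 2000/well, grown 16-24 hr, then given compounds in DMSO with the PDE inhibitor […] (300 uM solution added) for 30 min at 37C; cAMP was read by HTRF.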
TRPML1 inh – human mucolipin-1 channel inhibition | TRPML1-inducible cells, Ca2+ dye fluorescence, FDSS; active compounds read low; inhibition of EC80 agonist-evoked calcium signal | activity change, negative = inhibition, % (concentration not given with the values) | Q9GZU1 | hit rate 0.02% among 390,000; in the data active means activity change below about -50%; inconclusive means about -30% to -50%; inactive means above about -30%;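 further: stimulus is agonist 54-4 at its EC80 concentration; on the % scale 0 is the no-effect control and ±100 the full control effect; the text of the record puts the active cut at -80%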
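Tet-induced TRPML1-DL cells loaded with Ca8 no-wash calcium dye were read kinetically on FDSS. Compound addition was followed by EC80 agonist 54-4 (4 uM final); inhibition was read over 110 s.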
Menin-MLL FL inh – displaces fluorescein MLL peptide from human menin | Fluorescence polarization, fluorescein-MLL peptide displacement from menin | FP activity change, % at 61.4 µM | AID 1766 | 290,000 tested, under 10 active; inconclusive = falling polarisation curve, or a change in total fluorescence; inactive = total fluorescence flat and polarisation flat or rising; no compound was filed as active; the % refers to the polarisation; negative = inhibition;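 further: % of control where 0% means no effect; inhibitors lower the polarisation; unlabelled MLL peptide was the positive control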
Active calls of the source: *; ? = inconclusive; nt = not tested or not shown; & = joins results of further samples; [ ] = remark or other dose.

Values in the order: TRPML1 ag, gsp antagonist, ClpP mod, gsp ag, TRPML1 inh, Menin-MLL FL inh
CC(/C=C/c1ccccc1)=N\NC(=S)NC(C)C
  1.1, -2%, -2.8%, -1%[15.4 µM], -17, 0.6
CCN(CC)S(=O)(=O)c1cccc(-c2n[nH]c(=S)n2/N=C/c2ccc(Br)cc2)c1
  0.9, -3%, -2.3%, 11%, -2, nt
COc1ccc(OC)c(CCNC(=O)CS(=O)(=O)Cc2nc(-c3ccccc3C)oc2C)c1
  0.5, ?, 0.3%, 1%, 60, 4.1
CCc1nc(C)cc(N)c1OCc1ccccc1
  0.5, 9%, -2.7%, -2%, 37, 2.2
O=C(c1oc2ccccc2c1CSCc1ccccc1)N1CCN(c2ncccn2)CC1
  2.7, -22%, -6.6%, -3%, -29, -11
Cc1noc(C)c1CSc1nc2ccccc2n1C
  -0.2, 11%, 1.3%, -20%, 1, 0.4
CC1CN(C(=O)C(c2ccccc2)c2ccccc2)CC(C)O1 (configuration not stated)
  0.2, 5%, -0.6%, 0%, 1, 0.0
O=C(NC1CCCCC1)N1CCCC(c2nc(-c3ccc(S(=O)(=O)N4CCCC4)cc3)no2)C1 (configuration not stated)
  1.0, -11%, -1.7%, -64%, -10, -0.5
CC(C)(C)NCC(=O)N/N=C/c1ccc(OCc2ccccc2)cc1
  -1.5, 21%, nt, -1%[15.4 µM], -11, 0.4
S=C(NCCN1CCOCC1)C(=S)NCCN1CCOCC1
  0.7, 5%, nt, -38%[inhibitor], -6, nt
Cc1cccc(N2C(=O)CS/C2=N\NC(=O)c2ccc(Cl)cc2)c1C
  0.1, -2%, 1.3%, -26%, -1, 5.5
COc1ccc(NC(=O)c2cc(-c3cc(Cl)ccc3O)n[nH]2)c(OC)c1
  -1.2, 2%, nt, ?, -4, 1.5
CN(Cc1ccccc1)C(=O)CN1CCN(S(=O)(=O)c2ccc(Cl)c(Cl)c2)CC1
  -0.3, ?, 0.6%, -42%[inhibitor], -7, nt
Cc1ccc(/C=N/NC(=O)CNC(=O)COc2ccccc2)o1
  0.1, 9%, ?, 25%, -5, 2.2
CN(C)c1ccc(-c2noc(C3CCN(C(=O)Nc4ccc(Cl)cc4)CC3)n2)cc1
  0.4, -12%, ?, 24%, 10, -4.9
COc1ccc(NC2CCCN(C(=O)c3csc(C(C)C)n3)C2)cc1OC (configuration not stated)
  -0.2, -21%, -1.7%, -13%, -3, 2.5
CCOc1ccc(NC(=O)CN(C)C(=O)c2cc(-c3cccs3)nn2-c2ccccc2)cc1OCC
  -0.6, -13%, 1.9%, -32%[inhibitor], 5, nt
CN(Cc1cccnc1)Cc1c(C(=O)N2CCc3ccccc3C2)nc2ccc(Cl)cn12
  0.8, -9%, -4.6%, 28%, -13, -24
COc1cccc(CN(CC2CCCO2)C(=O)c2cc3ccccc3oc2=O)c1 (configuration not stated)
  -0.5, 7%, -3.9%, 17%, -13, 5.6
COc1cc(NS(=O)(=O)c2ccc(N)cc2)nc(OC)n1
  -0.4, -1%, 2.2%, nt, 50, 3.1
CC(C)CCNC(=O)c1ccc2c(c1)NC(=O)C(C(C)C)N2 (configuration not stated)
  -0.5, nt, -8.5%, nt, 12, nt
O=C(/C=C/c1ccc([N+](=O)[O-])cc1)NNC(=O)C1CC1
  -0.1, 9%, -1.4%, -13%[15.4 µM], 38, 0.9
N#CC(=C(O)COC(=O)c1ccc2c(c1)OCCO2)c1nc2ccccc2[nH]1
  1.0, -5%, nt, 7%, -1, nt
CCOc1ccc(S(=O)(=O)N(C)CC(=O)NC2CC2)cc1
  0.2, 15%, 0.4%, 21%, -2, nt
Cc1[nH]n(-c2ccccc2)c(=O)c1C=Nc1cccc(F)c1
  2.6, -9%, nt, -4%[15.4 µM], 6, 8.1
S=C(NCc1ccco1)NCc1ccccc1Cl
  -0.2, -7%, -1.0%, -16%, 8, -3.6
COc1cc2c(cc1OC)CN(C(=O)CSc1n[nH]c(N)n1)CC2
  -0.2, 12%, 0.3%, 14%, -4, 0.5
O=C(CCc1ccccc1)Nc1ncc([N+](=O)[O-])s1
  -0.7, -29%, 0.4%, -2%[15.4 µM], -11, 2.1
CC(C)Cc1nn2cc(-c3cccc(Br)c3)nc2s1
  -0.1, nt, 0.0%, nt, 12, nt
CCOC(=O)C1CCCN(C(=O)c2cn(-c3ccccc3)nc2-c2cccnc2)C1 (configuration not stated)
  14, 5%, 1.9%, 0%, -6, nt
CCOC(=O)N1CCN(c2c(NCCN3CCCCC3CC)c(=O)c2=O)CC1 (configuration not stated)
  0.1, 12%, -0.9%, -13%, 25, -1.6
C=C(C)Cn1c(NCCOC)nc2c1c(=O)[nH]c(=O)n2C
  -1.3, 7%, 0.3%, -11%, 6, 2.0
CC1CCN(Cc2nnnn2CCCC(=O)NC(c2ccccn2)C(F)(F)F)CC1 (configuration not stated)
  -0.5, 7%, -1.2%, 3%[15.4 µM], -3, nt
O=C(Nc1noc2ccccc12)c1c(F)cccc1F
  -0.3, nt, -1.8%, nt, 3, nt
CCOC(=O)C1CCCN(S(=O)(=O)c2cc3[nH]c(=O)c(=O)[nH]c3cc2C)C1 (configuration not stated)
  0.5, 3%, 4.4%, -20%, 5, -8.0
CCN(CC)CCNC(=O)C1CCN(S(=O)(=O)N2CCCCC2)CC1
  4.4, -3%, -0.3%, -73%[inhibitor], 8, -0.9
C/C(=N\Nc1ccc(C(=O)O)cc1)c1ccc(S(=O)(=O)NCc2ccco2)cc1
  -0.5, 3%, -1.0%, -20%, -7, 2.3
CN(C)C(=O)c1ccc(NC(=O)COC(=O)c2cc(S(=O)(=O)N(C)C)ccc2N2CCCC2)cc1
  -0.2, 1%, -2.4%, -28%, 7, nt
O=C(Cc1cccs1)N(Cc1ccco1)C1(C(=O)NC2CCCC2)CCCCC1
  0.9, -14%, -2.4%, -23%, 4, 2.0
CC(C)C1Nc2ccc(C(=O)N3CCN(c4ccccn4)CC3)cc2NC1=O (configuration not stated)
  0.8, 3%, -14%, -22%, -1, 0.7
O=C(Nc1nc2ccc(F)cc2s1)c1nc(S(=O)(=O)Cc2ccccc2)ncc1Cl
  -0.4, nt, 0.8%, nt, 18, nt
O=C(CSc1ccc(Cl)cc1)c1ccco1
  0.3, 8%, -1.0%, -4%, -1, 4.5
Clc1ccccc1OCCCCN1CCCCC1
  0.4, -24%, -3.4%, 2%, 12, 7.8
O=C1OC(/C(=C\Nc2ccc(F)cc2F)[N+](=O)[O-])c2ccccc21 (configuration not stated)
  0.8, ?, nt, -28%[15.4 µM], 12, 0.9
COc1ccc(CCN=C(N)NS(=O)(=O)c2ccc(F)cc2)cc1OC
  0.6, -4%, -0.9%, -68%[inhibitor], 9, 3.3
CCN(c1ccccc1)S(=O)(=O)c1ccc(NC(=O)c2nc(S(C)(=O)=O)ncc2Cl)cc1
  4.4&4.0, -2%, 7.6%&6.1%, -23%, -3&3, nt
COC(=O)C1CCN(c2cc(=O)n(Cc3ccc(F)cc3)c(=O)[nH]2)CC1
  0.4, 2%, -2.4%, -31%[inhibitor], -6, 1.9
Cc1cccc(Nc2nc(-c3c(C)nc4ccccn34)cs2)c1
  2.2, ?, -11%, -27%, 34, 0.1
CCN(CCCNC(=O)C1CCN(S(=O)(=O)c2cccc3nonc23)CC1)Cc1ccccc1
  -0.3, 10%[15.4 µM], -1.1%, 21%, 22, 7.6
Cc1ccc(Cl)cc1N1CCN(C(=O)Cc2c(C(=O)O)c(C)cn2C)CC1
  1.5, nt, -2.5%, nt, -1, nt

Other structures follow.
Values in the order: TRPML1 ag, gsp antagonist, ClpP mod, gsp ag, TRPML1 inh, Menin-MLL FL inh
O=C(CSc1nnc(COc2ccc(Cl)cc2)o1)N1CCCCC1
  -0.2, 0%, nt, 1%[15.4 µM], -2, nt
COc1cc(C2C(C#N)=C(N)N(c3ccc(F)cc3)C3=C2S(=O)(=O)CC3)ccc1O (configuration not stated)
  1.9, -20%, nt, 8%[15.4 µM], -3, ?
N#CC1=C(N)SC(N)=C(C#N)C1c1ccnc2ccccc12
  9.0, -12%, -10%, ?, 4, ?
CC1CCc2nn(CC(=O)NCCCN3CCOCC3)cc2C1 (configuration not stated)
  0.1, 5%, 1.0%, ?, 6, 4.6
O=c1[nH]c2ccc(NS(=O)(=O)c3ccc([N+](=O)[O-])cc3)cc2[nH]1
  0.6, nt, nt, -3%[15.4 µM], 12, -1.5
O=C(Cn1cc(C(F)(F)F)ccc1=O)N/N=C/c1ccc(O)cc1
  nt, 2%, -2.1%, -19%, nt, -3.1
Cc1cccc(NC(=S)N(C)C2CCCCC2)c1
  -0.2, 6%, -0.5%, 2%, 10, -0.3
O=C(Nc1ccc2c(c1)CCC2)c1c(F)cccc1Cl
  -0.6, -11%, nt, -21%, -10, 2.5
CC(=O)Oc1cccc(N2C(=O)c3ccc(C(=O)O)cc3C2=O)c1
  -0.3, ?, 1.1%, 9%, 11, -0.5
COc1ccc(NC(=O)CN(C)C(=O)c2n[nH]c3ccccc23)cc1
  1.8, -1%, -1.8%, -42%[inhibitor], 16, nt
CCOc1ccccc1-c1nc(CN2CCCN(C(=O)c3ccco3)CC2)c(C)o1
  2.2, -15%, 45%, 2%, 6, nt
CCCCCCCCCCCCCC(=O)O
  -0.3, 0%, 2.4%, nt, 3, nt
O=C(Nc1ccccc1)c1sc(N2CCOCC2)nc1-c1ccccc1
  0.9, -14%, 1.2%, 25%, -3, 0.0
CC(C)c1ccc(NC(=O)c2cc3sc(Cl)cc3n2C)cc1
  6.9, nt, 4.9%, nt, -16, nt
CC(C)C(=O)NC(=S)Nc1ccc(CN2CCOCC2)cc1
  1.4, 10%, 0.3%, -43%[inhibitor], 7, -0.4
Cc1ccc(-c2ocnc2C(=O)N2CCOCC2)cc1
  0.5, 8%, 2.7%, -5%, -18, -6.3
C=CCn1c(SCC(C)=O)nnc1-c1ccc2ncccc2c1
  -0.2, 3%, -0.9%, -1%[15.4 µM], 13, -2.1
Cc1nnc(NC(=O)CSc2nnc(-c3ccc(S(=O)(=O)N4CCCC4)cc3)n2C)s1
  1.9, -12%, -3.3%, 25%, 17, 3.3
